Beta cell apopt = blocks beta cell apoptosis; INS-1E cytokine-induced death, ATP luminescence, 48 h; percent of positive-control rescue, neutral wells zero; AID 435005; 0.8% of 300,000 active; protection from apoptosis, % (test concentration not listed);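 active = all replicates at 75% or more, or half of them and the mean; inconclusive = half reach 75% but not the mean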;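 also: 0% = cytokine-treated negative control wells and 100% = positive control rescue; higher means more ATP so stronger rescue from cytokine killing; wells of about 40 µL received 100 nL stock; the first replicate is given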
A1 inh = inhibitors of the anti-apoptotic protein A1, read as caspase activation; caspase activation, % (concentration not given with the values); AID 2462; 0.066% of 330,000 active; MEF A1-2A-BIM cells, Caspase-Glo 3/7 luminescence, 3 h; percent of clofoctol response, vehicle zero;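 active = over half of replicate activation scores above 10%, or exactly half above 10 with the replicate mean above 10; inconclusive = replicate mean below 10 yet half the replicates above 10; inactive = over half of replicates below 10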;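 also: wells of about 30 µL received 50 nL stock; many hits fall short of the cut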
MLL AF4-AF9 inh = inhibitors of human MLL-AF4/AF9 interaction; AlphaScreen, biotin-AF4 peptide binding to FLAG-AF9; inhibition, % at 10 µM; 0.47% of 350,000 active; P42568;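 active = every replicate reaching a set inhibition limit, whatever the replicate mean, cut at about 25% in these data; inconclusive = mean inhibition reaches that limit but some replicates miss it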;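 also: 0% = plate neutral control median and 100% = total signal loss; the record names both 10 and 1 µM as test concentration; the first replicate is given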
Target sequence (P42568 whole entry, looked up): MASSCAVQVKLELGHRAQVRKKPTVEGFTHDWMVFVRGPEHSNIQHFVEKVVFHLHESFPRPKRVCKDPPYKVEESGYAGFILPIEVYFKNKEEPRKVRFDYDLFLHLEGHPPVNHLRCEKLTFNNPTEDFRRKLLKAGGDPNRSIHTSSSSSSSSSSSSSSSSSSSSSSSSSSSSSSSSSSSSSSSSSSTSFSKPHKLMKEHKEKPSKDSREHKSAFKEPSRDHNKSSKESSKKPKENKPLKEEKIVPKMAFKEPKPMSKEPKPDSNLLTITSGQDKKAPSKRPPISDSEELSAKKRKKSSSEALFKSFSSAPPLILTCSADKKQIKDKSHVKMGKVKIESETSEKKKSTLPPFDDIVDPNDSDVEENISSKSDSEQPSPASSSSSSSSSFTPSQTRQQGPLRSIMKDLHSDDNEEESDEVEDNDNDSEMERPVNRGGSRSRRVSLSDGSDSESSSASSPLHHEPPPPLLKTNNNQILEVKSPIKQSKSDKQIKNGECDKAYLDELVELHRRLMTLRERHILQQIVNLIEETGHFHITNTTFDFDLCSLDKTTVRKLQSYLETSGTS
Calb FLC = C. albicans growth modulation with fluconazole; 0.57% of 300,000 active; growth inhibition, % (concentration not given with the values); C. albicans CaCi-2 (fluconazole-resistant clinical isolate) + fluconazole, Alamar Blue growth, 48 h;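 active = most replicates above 75%; inconclusive = exactly half above 75%; inactive = most below 75%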;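 also: all wells also contain fluconazole at 8 µg/ml as a sub-toxic cotreatment; 0% = median of DMSO wells and 100% = median of geldanamycin control wells; wells of about 8 µL received 7.5 nL stock; the first replicate is given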
Ecoli rRNA inh = inhibitors of bacterial rRNA selective over humanized ribosomes. GFP signal change (wild-type ribosome), % (no concentration beside the values). E. coli WT GFP vs humanized-ribosome RFP mutants, fluorescence, 24 h; active compounds read low; DMSO median 0, no signal -100. 1.6% of 350,000 active;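 active = significant combined selectivity score with lowered wild-type GFP, culture density cut under 30%, mutant RFP and density less affected; inactive = any of these conditions unmet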; also: one replicate is shown; some compounds called inactive have numbers as strong as hits
Vif TR-FRET = inhibitors of Vif binding to APOBEC3G peptide, primary screen, biochemical, TR-FRET, GST-Vif 1-94, biotin-A3G peptide, dose response retest (AID 1117319); TR-FRET GST-Vif / biotin-A3G peptide binding; higher % means a stronger effect; test concentration not given here; strong numbers were not always called active; inhibition, %; hits with a dose series show IC50 in µM; 0.57% of 260,000 active;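 active = above the screen mean plus three standard deviations and confirmed in dose response; inconclusive = results disagree or hit not tested in dose response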;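 also: Vif residues 1-94 fused to GST binding biotinylated APOBEC3G peptide 110-148; 0% = full assay without inhibitor and 100% = GST in place of GST-Vif; retest series ran down from 100 µM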
RanGTP-Impb inh = inhibitors of RanGTP-importin-beta interaction, primary screen, biochemical, FRET, CFP-Ran, YFP-importin-beta, homogeneous; AID 2216; 1.1% of 300,000 active; cell-free CFP-Ran/YFP-importin-beta FRET ratio; inhibition, % (no concentration beside the values);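 active = most replicates above 15%; inconclusive = exactly half above 15%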;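 also: 0% = DMSO wells and 100% = Ran loaded with GDP instead of GTP; wells of about 40 µL received 100 nL stock; the first replicate is given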
T cruzi repl = blocks replication of Trypanosoma cruzi. T. cruzi beta-gal in NIH3T3, luminescence, 90 h. inhibition, % (test concentration not listed). 1.4% of 300,000 active. AID 1885;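 active = mean inhibition across valid replicates above about 55%, limit read from the data; inconclusive = mean below that limit but half or more replicates reach it; inactive = mean below it, under half of replicates reach it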;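 also: signal also drops with host cell toxicity which is not excluded here; 0% = plate median of DMSO wells and 100% = zero luminescence signal; higher percent means less beta-gal luminescence so fewer parasites; stock transfer was 50 nL into about 50 µL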
Ecoli rRNA inh OD600 = further read-out of Ecoli rRNA inh, marked with its call; OD600 change, %; measured here: OD600 growth;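 optical density of the mix in the first replicate; 0 = DMSO median and -100 = no signal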
Ecoli rRNA inh RFP = also measured in Ecoli rRNA inh; calls as there; RFP signal change, %; measured here: RFP humanized mutant strains;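 first replicate; 0 = DMSO median and -100 = no signal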
Active calls of the source: *; ? = inconclusive; . = no result given. This is a subset; count on the stated rates, not on these rows.

Molecule,Beta cell apopt,A1 inh,MLL AF4-AF9 inh,Calb FLC,Ecoli rRNA inh,Ecoli rRNA inh OD600,Ecoli rRNA inh RFP,Vif TR-FRET,RanGTP-Impb inh,T cruzi repl
COc1ccc(C(=O)Nc2cccc(/C(C)=N/NC(=O)c3ccc([N+](=O)[O-])cc3)c2)cc1OC,15,-0.2,.,0,.,.,.,-5%,0.7,29
CC(C)CC(NC(=O)C1CCCCC1)C(=O)NCc1ccccn1 (stereo unspecified),2,0.4,.,-3,.,.,.,0%,-1.0,-3
N#Cc1c(NC(=O)C2CC=CCC2C(=O)O)sc2c1CCCCCC2 (stereo unspecified),-3,1.3,.,11,.,.,.,11%,1.7,-15
CCc1nc2ccccc2nc1N1CCN(S(=O)(=O)c2c(C)cc(Cl)cc2C)CC1,-2,0.4,-0.5,-9,19,2,1.3,.,2.3,14
Cn1nc(C(=O)NCc2ccc(F)cc2)c2ccccc2c1=O,-1,-0.2,.,0,.,.,.,3%,0.8,-7
Cn1cc(/C=C(\NC(=O)c2ccccc2Cl)C(=O)NCCN2CCOCC2)c2ccccc21,1,-0.5,7.3,4,0,-6,-1.0,.,0.2,15
COc1ccc(-c2nnn(CC(=O)N(CCN3CCOCC3)C(C(=O)NC3CCCCC3)c3ccco3)n2)cc1 (stereo unspecified),-3,0.9,-0.3,45,14,0,-2.7,.,-1.6,12
CS(=O)(=O)c1ccccc1C(=O)Nc1ccccc1Cc1ccccc1,.,?,2.0,-3,-1,7,-0.3,.,-5.3,-4
COc1cccc(OC)c1C(=O)Nc1nc(COc2ccccc2)cs1,-6,-0.3,-2.5,9,8,12,2.0,8%,6.2,-29
CCCCN(c1ccc(C(=O)OC)cc1)S(=O)(=O)c1ccccc1,1,-0.8,-5.3,-7,-20,-22,-2.6,-5%,0.6,13
COc1ccc(C(=O)NNC(=O)CSc2nnc3ccccn23)cc1OC,-6,-0.5,-2.5,.,12,-3,-2.1,0%,.,.
O=C(CSc1nc(Cc2ccccc2)nc2ccccc12)Nc1nc2c(s1)CCCC2,.,0.3,1.8,-19,-11,-3,-6.7,21%,2.1,0
CC(C)(C)OC(=O)NCCCC(CCCNC(=O)OC(C)(C)C)C(=O)O,-6,-1.0,.,-8,.,.,.,0%,1.3,-14
Nc1nonc1N/N=C\c1ccccc1,-3,0.7,-0.7,-5,.,.,.,0%,1.6,22
S=C(NCc1ccccc1)N/N=C/c1cccs1,9,-2.6,3.9,-26,-18,-22,-11,.,?,19
CCCCn1c(N)c(N(CC(C)C)C(=O)Cc2ccc3c(c2)OCCO3)c(=O)[nH]c1=O,-4,-0.5,-0.9,7,4,8,-2.2,1%,6.8,-3
O=[N+]([O-])c1ccc(S(=O)(=O)N(CCCN2CCOCC2)Cc2cccs2)cc1,-1,0.4,5.0,17,9,2,-3.9,19%,-1.3,34
O=C(c1ccco1)N1CCN(Cc2nnnn2CCc2ccccc2)CC1,-1,0.6,.,8,.,.,.,2%,1.9,-9
Nc1[nH]c(=O)[nH]c(=O)c1N=Nc1ccccc1Cl,-8,-2.6,-5.4,10,5,9,-5.3,.,1.7,-2
N#CC1=C(N)n2c(s/c(=C\c3ccco3)c2=O)=C(C#N)C1c1ccco1 (stereo unspecified),-4,-0.3,.,7,.,.,.,?,-3.7,-28
COC(=O)c1ccc(NC(=O)CCN2CCN(CCC(=O)Nc3ccc(C(=O)OC)cc3)CC2)cc1,1,-1.7,.,13,.,.,.,-1%,4.3,26
CN(C)S(=O)(=O)c1ccc(NC(=O)c2ccc(Br)o2)cc1,-2,0.1,.,-28,.,.,.,-1%,-3.0,5
CC(C)Cc1cc(C(=O)NCCc2ccccc2)no1,-6,-0.6,-4.1,3,0,3,-6.2,2%,2.5,0
COC(=O)C1=C(C)NC(=O)NC1c1ccc(OCC(=O)N2CCCCC2)cc1 (stereo unspecified),.,0.4,.,1,.,.,.,4%,2.7,-7
CC(C)N(Cc1nccn1C)C(=O)c1ccc2oc(Cc3ccccc3)nc2c1,.,.,-3.4,-9,1,5,-6.6,.,-0.1,-6
Cc1nc(C(=O)N(C)C)nn1-c1cc(Cl)cc(Cl)c1,2,-0.2,.,2,.,.,.,73%,-2.8,-6
CCOC(=O)c1cc2n(c1/N=C/N(C)C)-c1ccccc1C2=O,3,0.3,.,2,.,.,.,9%,-253,15
Cc1ccccc1N1CCN(CCCN2C(=O)C3CCCCN3C2=O)CC1 (stereo unspecified),-9,-0.3,5.2,-11,18,16,-0.2,.,5.8,8
Cc1cc(C)nc(NC(=O)c2cccc(Br)c2)n1,.,1.5,-3.7,-3,12,9,1.0,.,-2.8,-10
CCOC(=O)Cc1csc(SCC(=O)NC(C)C23CC4CC(CC(C4)C2)C3)n1 (stereo unspecified),-2,0.2,.,-12,.,.,.,-4%,1.8,24
CC(=O)Nc1cccc(C(=O)/C=C/c2ccc(C)cc2)c1,-6,2.5,-10.0,6,-24,-20,3.7,?,-2.7,-4
CC1CN(C(=O)c2cc3c(s2)CCC3)CC(C)O1 (stereo unspecified),-6,1.2,.,7,.,.,.,3%,1.3,-24
Cc1ccc(NC(=O)CSc2nc(N)cc(N)n2)cc1S(=O)(=O)N1CCOCC1,2,2.0,-3.1,0,-4,-2,-5.1,.,-0.1,-12
CC12CCC(=O)N1C(C(=O)Nc1nc3ccc(Cl)cc3s1)CS2 (stereo unspecified),5,0.1,1.5,.,-12,-37,1.0,5%,2.8,-6
CCCCn1c(N)c(N(CCC(C)C)C(=O)c2ccc(-c3ccc([N+](=O)[O-])cc3)o2)c(=O)[nH]c1=O,19,-1.0,-0.9,.,8,14,0.8,15%,.,.
CCC(C)N(C(=O)CN1C(=O)NC2(CCc3ccccc32)C1=O)C1CCS(=O)(=O)C1 (stereo unspecified),-1,0.1,4.5,.,-3,9,-6.7,1%,.,.
N#CC(NC(=O)OCc1ccccc1)c1ccccc1 (stereo unspecified),1,0.5,-0.1,-2,-9,-12,0.0,.,1.7,6
O=C(N/N=C/c1cccnc1)c1ccc(F)cc1,.,0.1,0.7,-14,6,24,0.0,9%,-2.7,-2
Cc1cc(C)c(C)c(S(=O)(=O)N2CCN(C(=O)c3ccco3)CC2)c1C,-7,-0.1,0.0,-18,.,.,.,.,1.7,-1
CCCC/C=C/C(NC(=O)c1ccc(C(=O)OC)cc1)c1ccccc1 (stereo unspecified),-7,1.9,-3.8,10,2,-1,-3.3,.,2.6,13
CCN(CC)S(=O)(=O)c1ccc(NC(=O)C2CCCO2)cc1 (stereo unspecified),-2,1.8,-4.3,13,13,0,-0.4,16%,2.7,-12
COc1ccccc1CCC(=O)OCc1csc(CC(=O)Nc2ccccc2C)n1,0,-0.1,-2.8,-11,6,2,-0.2,.,2.7,-3
COC(=O)C1=CN(C2CC2)C=C(C(=O)OC)C1c1ccc(C(F)(F)F)cc1,-1,-2.8,-10.0,-20,15,8,2.3,1%,26*,40
O=C(O)C1CCC(c2ccc(-c3ccccc3)cc2)CC1 (stereo unspecified),-1,-0.7,-3.5,2,-32,-48,-4.4,.,0.4,-7
O=C(N/N=C/c1ccco1)c1ccc(N2CCCC2=O)cc1,-4,-0.1,.,-2,.,.,.,.,-1.3,-8
CC(C)(C)NS(=O)(=O)c1ccc(CCC(=O)NCc2cccnc2)cc1,13,-0.3,.,-2,.,.,.,13%,-2.8,-9
Cc1noc(C)c1NC(=O)NCCN1CCN(Cc2ccccc2)CC1,0,0.2,-1.2,-4,7,12,-0.9,25%,-4.2,.
CN(C)C(=O)Cn1cc(S(=O)(=O)Cc2ccccc2)c2ccccc21,-9,1.2,-0.7,-24,7,1,2.8,7%,-1.4,-3
Cc1nn(C)c(C)c1NC(=O)c1ccnn1C,-3,-0.4,.,-4,.,.,.,-3%,4.6,-9
CC(C)COP(=O)(c1ccc(N(C)C)cc1)C(O)c1ccc(Br)cc1 (stereo unspecified),1,0.8,-0.2,41,3,10,1.3,.,-0.4,21

Next structures:
Molecule,Beta cell apopt,A1 inh,MLL AF4-AF9 inh,Calb FLC,Ecoli rRNA inh,Ecoli rRNA inh OD600,Ecoli rRNA inh RFP,Vif TR-FRET,RanGTP-Impb inh,T cruzi repl
CCOC(=O)c1c(CSc2ccccc2)n(C)c2ccc(O)c(CN3CCN(C)CC3)c12,-5,0.6,15,0,-6,-10,16,-6%,?,16
COc1ccc(CCNC(=O)COc2ccc(C)nc2[N+](=O)[O-])cc1OC,0,0.6,-1.8,-25,-1,-9,-7.7,.,3.0,14
O=C(O)CN1CCCC1=Nc1ccccc1,1,0.6,.,-11,.,.,.,-6%,-1.1,-9
CCCCc1ccc(NS(=O)(=O)c2c(C)n(C)c(=O)n(C)c2=O)cc1,0,0.1,-9.6,-8,1,10,-0.3,.,0.8,4
Cc1ccccc1Nc1nc(N)nc(CSc2nc3ccccc3s2)n1,-1,0.0,.,2,.,.,.,3%,6.4,1
CCCCn1nc(C(=O)O)ccc1=O,0,0.1,.,-2,.,.,.,70%,8.3,-8
CCc1nnc2sc(-c3ccc(NC(=O)c4ccc5c(c4)OCCO5)cc3)nn12,5,-0.4,.,-4,.,.,.,17%,1.9,-1
O=C(Nc1nc2ccccc2s1)c1c(F)cccc1Cl,-1,-0.1,0.2,-7,-9,-6,-0.9,-6%,0.3,9
CCCc1nnc(NC(=O)C2CC(=O)N(CCc3ccc(F)cc3)C2)s1 (stereo unspecified),-7,-0.2,-4.9,-5,9,8,6.6,.,-3.2,-2
Cc1ccc(SCc2cn3ccccc3n2)cc1,9,-5.8,-3.2,-5,-4,-7,3.3,-6%,0.7,-5
O=C(Nc1cccc(Cl)c1)NC1CCS(=O)(=O)C1 (stereo unspecified),7,-0.1,-9.4,4,-1,1,-3.8,.,-1.0,0
C=CCN1C(=O)C2(OCCCO2)c2cc(C)ccc21,8,-0.2,-2.4,-4,-1,11,-1.6,-2%,0.5,1
O=C(Nc1nccs1)C1CC=CCC1 (stereo unspecified),-9,0.1,-1.0,-5,24,9,6.5,32%,3.2,-10
CCCCC(CCC(=O)O)(C(=O)OCC)c1csc(Nc2ccc(C)cc2)n1 (stereo unspecified),-11,-0.2,-2.7,-1,5,17,-1.1,-6%,0.0,-12
Cc1ccc(CNC(=O)Cn2ncn3cccc3c2=O)cc1,-3,-3.3,-5.1,1,11,24,1.7,.,-2.6,-1
CCn1c(SCC(=O)Nc2ccccc2Cl)nnc1C1CC1,-1,-0.1,-1.9,-5,9,8,-0.1,.,-1.9,-7
O=[N+]([O-])c1ccc(Sc2nccn2Cc2ccccc2)c([N+](=O)[O-])c1,-1,1.0,-24,1,0,-1,6.0,17%,2.2,65*
CCOc1ccc(-c2cccc(NC(=O)COc3ccccc3)c2)nn1,2,-0.5,.,-3,.,.,.,-4%,0.2,-5
COc1ccc(N(CC(=O)O)S(C)(=O)=O)cc1OC,1,0.3,.,5,.,.,.,3%,3.1,3
NC(=O)CSc1nc2scc(-c3ccc(Cl)cc3)c2c(=O)n1Cc1ccccc1,3,0.6,.,-10,.,.,.,.,-0.3,21
